High-throughput results: PubChem, National Center for Advancing Translational Sciences (NCATS)
SARS PLP yeast: inhibitors of SARS-CoV papain-like protease in yeast | Potency, µM (top dose mostly 32.9 µM), inactives show top-dose activity, positive = growth rescue | S. cerevisiae expressing SARS-CoV PLpro, growth rescue; control for the full effect not named in the record | hit rate 0.19% among 330,000; further: 0% is about no effect; nearly all actives have a fitted effect of over 55% in size; growth read by luminescence after 48 h
Cruzain inh noDet: cruzain (T. cruzi) inhibition without detergent. P25779. purified cruzain, Z-FR-AMC fluorescence, no detergent. hit rate 2.3% among 200,000. Potency, µM, for inactives: max response, negative = inhibition, actives largely listed as inhibitors. AID 1476; active means well fitted curve in the direction sought with a large enough effect; inconclusive means small, poorly fitted or top-dose-only effect, or another doubt; inactive means no such curve, though single readings can be large; an effect the other way counts as inactive or inconclusive;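 further: plate controls were enzyme without inhibitor for no effect and buffer without enzyme for full effect; nearly all actives have a fitted effect of over 40% in size; top concentration of the series not given in the record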
Target sequence (P25779 123-467 limits assumed): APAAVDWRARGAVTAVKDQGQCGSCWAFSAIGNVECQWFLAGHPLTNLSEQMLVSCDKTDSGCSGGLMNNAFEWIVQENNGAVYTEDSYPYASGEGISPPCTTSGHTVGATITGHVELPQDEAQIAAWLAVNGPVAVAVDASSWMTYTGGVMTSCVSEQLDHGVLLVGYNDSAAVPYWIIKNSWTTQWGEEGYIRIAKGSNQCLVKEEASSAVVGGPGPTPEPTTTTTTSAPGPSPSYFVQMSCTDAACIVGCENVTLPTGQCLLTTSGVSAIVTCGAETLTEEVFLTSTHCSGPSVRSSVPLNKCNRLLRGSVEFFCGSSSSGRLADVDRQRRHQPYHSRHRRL
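Detergent-free condition (0.00005% Triton X-100) in acetate buffer pH 5.5 with DTT. 1.5 nM enzyme and compound were pre-mixed 15 min, then 2 uM Z-FR-AMC substrate added; reaction progress from fluorescence change between first and third reads (60 s).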
RE007 growth inh: less growth of the S. pombe RE007 Vpr strain; S. pombe RE007 Vpr strain, BacTiter-Glo ATP luminescence, 24 h; control for the full effect not named in the record; Potency, µM (doses to about 92.2 µM), for inactives: at the highest dose activity change, negative = less growth; hit rate 0.21% among 360,000; AID 651644; active = well fitted falling curve with a large enough effect; inconclusive = small, poorly fitted or top-dose-only effect; inactive = no such curve, though single readings can be large or run the other way;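 further: on the % scale 0 is the no-effect control and ±100 the full control effect; nearly all actives have a fitted effect of over 50% in size; the assay follows cell death caused by Vpr and the record does not say whether a fall means rescue or toxicity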
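Fission yeast strain RE007, carrying one chromosomally integrated HIV-1 vpr copy, was seeded at OD 0.01 in PMG+AL medium with 23 nL pinned compound. After 24 h at 30 °C and 99% humidity, viability was read by BacTiter-Glo luminescence.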
MARV entry inh: inhibitors of Marburg virus binding or cell entry; Marburg virus pseudotyped entry inhibition, cell reporter; control for the full effect not named in the record; about a third of the inactives were read at about 46 µM; Potency, µM (doses to about 37.8 µM), inactives show at the highest dose activity change, negative = inhibition, most hits filed as inhibitors; hit rate 1.8% among 300,000; active = well fitted inhibition curve with a large enough effect; inconclusive = small, poorly fitted or top-dose-only effect, or effect the other way; inactive = flat fitted curve, though single readings scatter; tested in HEK293 cells; about a fifth of its hits are not listed in these tables; further: on the % scale 0 is the no-effect control and ±100 the full control effect; luciferase read-out
StopGo reporter: lowers the luciferase signal of an FMDV 2A StopGo reporter | Potency, µM (series often up to 57.9 µM), for inactives: top-dose signal change, negative = less light | hit rate 1.2% among 410,000 | human cells with a luciferase reporter of 2A StopGo recoding; control for the full effect not named in the record; active = well fitted falling curve with a large enough effect; inconclusive = small, poorly fitted or top-dose-only effect; inactive = no such curve, though single readings can be large or run the other way; tested in HEK293T cells; further: on the % scale 0 is the no-effect control and ±100 the full control effect; nearly all actives have a fitted effect of over 45% in size; luciferase light after 4 h
Cruzain Triton: blocks cruzain activity in presence of Triton detergent; purified cruzain, Z-FR-AMC fluorescence, 0.01% Triton; P25779; Potency, µM, without a hit: max response, negative = inhibition, actives largely listed as inhibitors; hit rate 0.43% among 200,000; active means well fitted curve in the direction sought with a large enough effect; inconclusive means small, poorly fitted or top-dose-only effect, or another doubt; inactive means no such curve, though single readings can be large; an effect the other way counts as inactive or inconclusive;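 further: plate controls were neutral wells for no effect and buffer without enzyme for full effect; nearly all actives have a fitted effect of over 40% in size; top concentration of the series not given in the record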
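Z-FR-AMC hydrolysis (2 uM substrate) by cruzain (1.5 nM) monitored kinetically at ex 360/em 450 nm after 15 min room-temperature compound exposure; 0.01% Triton X-100, pH 5.5, 5 mM DTT.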
NS1 inh: blocks influenza NS1 protein function | hit rate 0.4% among 270,000 | Potency, µM (series often up to 46.1 µM), without a hit: at the highest dose activity, positive = more growth | S. cerevisiae slowed by influenza A NS1, growth recovery by OD600; further: actives are rising curves; nearly all actives have a fitted effect of over 50% in size
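Read-out: OD600 growth recovery of NS1-expressing budding yeast. Cells grown overnight at 30C in -URA glucose medium, washed, resuspended and diluted 1:100 in 2% galactose assay medium, pH 6.0. Same strain lacking NS1 served as positive control.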
LASV entry inh: blocks Lassa virus binding to or entry into cells; Lassa virus pseudotype entry inhibition, cell reporter; control for the full effect not named in the record; Potency, µM (highest dose often 37.9 µM), without a hit: at the top dose activity change, negative = inhibition, hits mostly inhibitors; hit rate 1.2% among 300,000; active means well fitted inhibition curve with a large enough effect; inconclusive means small, poorly fitted or top-dose-only effect, or effect the other way; inactive means flat fitted curve, though single readings scatter; tested in HEK293 cells; further: on the % scale 0 is the no-effect control and ±100 the full control effect; nearly all actives have a fitted effect of over 50% in size; luciferase read-out
* = called active by the depositor; ? = inconclusive; · = not tested or not shown; [ ] = another dose, or the depositor's remark. Unless noted, the call rests on the fitted dose curve; in most records, active means well fitted rising curve with a large enough effect; inconclusive means small, poorly fitted or top-dose-only effect; inactive means no such curve, though single readings can be large or run the other way. Potency means the concentration at half of the fitted maximal effect.

Start of the listing, in advance, 4 compounds:
| Compound | SARS PLP yeast | Cruzain inh noDet | RE007 growth inh | MARV entry inh | StopGo reporter | Cruzain Triton | NS1 inh | LASV entry inh |
| --- | --- | --- | --- | --- | --- | --- | --- | --- |
| COc1ccc(-c2cnc3c(-c4ccc(F)cc4)cnn3c2N)cc1 | 7% | · | -16% | ? | 34%[activator] | · | -2% | ? |
| O=C(COc1ccc(-c2nnco2)cc1)Nc1c(Cl)cccc1C(F)(F)F | -6% | · | 2% | ? | 0% | · | · | -1%[46.1 µM] |
| CCOC(=O)C1CCN(Cc2cc(C(C)(C)C)c(O)c(C(C)(C)C)c2)CC1 | 0% | · | -3% | ? | -18% | · | · | -1%[46.1 µM] |
| Fc1ccc(Nc2nc(NCc3ccco3)c3ccccc3n2)cc1 | -3% | · | 9% | · | ? | · | -51% | · |

The listing, from the first entry:
| Compound | SARS PLP yeast | Cruzain inh noDet | RE007 growth inh | MARV entry inh | StopGo reporter | Cruzain Triton | NS1 inh | LASV entry inh |
| --- | --- | --- | --- | --- | --- | --- | --- | --- |
| COc1ccc(-c2cnc3c(-c4ccc(F)cc4)cnn3c2N)cc1 | 7% | · | -16% | ? | 34%[activator] | · | -2% | ? |
| O=C(COc1ccc(-c2nnco2)cc1)Nc1c(Cl)cccc1C(F)(F)F | -6% | · | 2% | ? | 0% | · | · | -1%[46.1 µM] |
| CCOC(=O)C1CCN(Cc2cc(C(C)(C)C)c(O)c(C(C)(C)C)c2)CC1 | 0% | · | -3% | ? | -18% | · | · | -1%[46.1 µM] |
| Fc1ccc(Nc2nc(NCc3ccco3)c3ccccc3n2)cc1 | -3% | · | 9% | · | ? | · | -51% | · |
| CC1CCN(C(=O)C2CCN(S(=O)(=O)N3CCC4(CC3)OCCO4)CC2)CC1 | 14% | · | 1% | 5%[46.1 µM] | -5% | · | ? | 12%[46.1 µM] |
| Cc1ccccc1-n1c(-c2ccncc2)n[nH]c1=S | 2% | 7% | -5% | 3% | 2% | -7.9% | 7% | -16% |
| COc1cc(CN(C(=O)c2ccc(OC(C)C)cc2)C2CCS(=O)(=O)C2)cc(OC)c1OC (configuration not stated) | · | ? | · | 4%[46.1 µM] | 0% | -1.9% | · | -14%[46.1 µM] |
| COC(=O)c1cc(=O)n(Cc2ccco2)c(=Nc2ccc(F)c(Cl)c2)s1 | -6% | 17% | 20% | · | ? | -2.7% | -50% | · |
| Cc1coc2cc3oc(=O)c(CC(=O)NCc4cccc(Cl)c4)c(C)c3cc12 | · | -8% | · | 13%[46.1 µM] | 7% | 2.6% | · | -13%[46.1 µM] |
| CCC(NC(=O)OCc1ccccc1)C(=O)Oc1ccc2ccc(=O)oc2c1 (configuration not stated) | -1% | · | -15% | -22%[46.1 µM] | -8% | · | -18% | -16%[46.1 µM] |
| COC(=O)Nc1ccc(OC)c(OC)c1 | · | 8% | 6% | 2% | · | 3.9% | -4% | 14% |
| CCC(C)(C)n1nnnc1C(c1ccccc1F)N1CCC(C(N)=O)CC1 (configuration not stated) | 7% | 14% | 21% | ? | -5% | 1.8% | -3% | 19% |
| Cc1nc([N+](=O)[O-])c(C(=O)OCc2ccccc2F)n1C | -2% | · | 11% | 14%[46.1 µM] | 6% | · | · | 11% |
| O=C(NNc1cc(Cl)cc(Cl)c1)c1cccs1 | -5% | · | 51% | ? | 0% | · | -45% | -9%[46.1 µM] |
| O=C(N1CCOCC1)N1CCC(NC(=O)C23CC4CC(CC(C4)C2)C3)CC1 | -2% | 7% | 25% | ? | -15% | -1.5% | -2% | 1% |
| COc1ccc(C2/C=C\CN(CC(C)(C)C)CC(=O)N2Cc2ccc(F)cc2)cc1 (configuration not stated) | -7% | · | -8% | · | -5% | · | 13% | · |
| O=C(c1ccc2ccccc2c1)N1CCc2ccccc21 | 3% | · | -1% | 0%[46.1 µM] | 33%[activator] | · | 10% | 2% |
| O=C(Nn1cnnc1)c1ccncc1 | 0% | -2% | 3% | 14% | -4% | 9.0% | -5% | -2% |
| CCc1ccc(OCC(=O)Nc2ccncc2)c(Br)c1 | -12% | · | ? | ? | 8% | · | -78% | -11%[46.1 µM] |
| Cc1ccc(C)c(N2CCN(C(=O)CCNS(=O)(=O)c3ccc4c(c3)oc(=O)n4C)CC2)c1 | 1% | · | 4% | · | ? | · | 16% | · |
| O=C(Nc1ccc2c(c1)CCC2)c1cnccn1 | -9% | -2% | -9% | -21% | 47%[activator] | -2.2% | -5% | ? |
| Cc1nc([N+](=O)[O-])nn1C12CC3CC(CC(Cl)(C3)C1)C2 | 3% | 4% | -4% | ? | -22% | 0.5% | 19% | -11% |
| Cc1ccc(Cl)cc1NC(=O)c1cc(S(=O)(=O)N2CCCCCC2)cn1C | · | -3% | · | · | -19% | -0.1% | · | -3%[46.1 µM] |
| O=S(=O)(NC1CCCCC1N1CCOCC1)c1ccc(Cl)cc1 (configuration not stated) | 1% | · | -2% | 0%[46.1 µM] | -8% | · | -5% | 10% |
| COc1ccc(COC(=O)C2=C(C)NC(=O)NC2c2ccc(O)cc2)cc1 (configuration not stated) | 0% | · | -10% | · | 0% | · | 6% | · |

Additional entries
Screens in order: SARS PLP yeast, Cruzain inh noDet, RE007 growth inh, MARV entry inh, StopGo reporter, Cruzain Triton, NS1 inh, LASV entry inh
> CC(=O)c1cc(-c2ccccc2)n(CCC(=O)NC2CCCCCC2)c1C
  5%, -2%, -12%, -1%, -20%, -0.8%, -31%, ?
> Clc1ccc(Nc2ccc(Cl)nn2)cc1
  -3%, ·, 6%, -1%[14.2 µM], 14%, ·, -3%, 15%
> COc1cc(O)c2c(=O)c(-c3ccc(O[C@@H]4O[C@H](CO)[C@@H](O)[C@H](O)[C@H]4O)cc3)coc2c1
  -3%, ·, -2%, 10µM*, 31%[activator], ·, -3%, ?
> Cc1ccc(NC(=O)c2ccc(Cl)c(N3C(=O)CCC3=O)c2)cc1
  -1%, ·, 12%, ·, -17%, ·, 9%, ·
> COc1ccccc1Oc1c(C)oc2c(CN3CCN(CCO)CC3)c(O)ccc2c1=O
  4%, 17%, 6%, 4%, -1%, 8.4%, 1%, 2%
> COc1ccc(CNC(=O)CCc2nc3cccnc3n2Cc2ccccc2)cc1
  ·, -13%, ·, 9%[46.1 µM], -4%, 4.5%, ·, 17%[46.1 µM]
> CCCCn1c(=O)c(C(=O)Nc2ccccc2N)c(O)c2ccccc21
  -2%, ·, -1%, ·, -9%, ·, 9%, ·
> CCc1ccccc1NC(=O)C1(S(=O)(=O)c2ccc(C)cc2)CC1
  1%, ·, 11%, 1%[46.1 µM], -10%, ·, -25%, 7%[46.1 µM]
> O=S1(=O)CCOC[C@H](c2ccccc2)N1Cc1ccccc1F
  -9%, ·, -2%, ·, -12%, ·, -34%, ·
> CN1CCN(C(=O)c2cc(COc3c(F)cccc3F)on2)CC1c1ccccc1 (configuration not stated)
  0%, ·, -11%, -6%, 8%, ·, -2%, ?
> S=C(NCc1ccccn1)Nc1ccc(Cl)cc1
  27%, -3%, -23%, 20%, 72%[activator], 2.4%, -11%, 7%
> Cc1cccc(/C(N)=N/OC(=O)c2ccco2)c1
  -39%, -5%, ?, ?, 0%, -7.7%, -116%, ?
> Cc1cccc(C(=O)N2CCCC(Nc3ccc(C(C)C)cc3)C2)n1 (configuration not stated)
  4%, ·, -10%, ·, -17%, ·, -9%, ·
> CCCc1cc(=O)[nH]c2nnc(SCCC(C)C)n12
  ·, -5%, ·, ·, -1%, 0.1%, ·, ?
> Nc1c(C(=O)N2CCOCC2)sc2nc3c(cc12)CCC3
  -2%, ·, 14%, ·, 21%, ·, 3%, ·
> Cc1noc(C)c1S(=O)(=O)N1CCC(C(=O)NCCCN2CC(C)CC(C)C2)CC1 (configuration not stated)
  0%, ·, -14%, 4%[46.1 µM], -10%, ·, ·, 12%[46.1 µM]
> CC(C)CNC(=O)c1cccc(C(=O)NCC(C)C)c1
  3%, -1%, 9%, 11%, 11%, 4.3%, 13%, -22%[14.3 µM]
> COc1ccc(-n2c(=O)[nH]c3cc(C(=O)NCCc4ccccc4)ccc3c2=O)cc1OC
  2%, -3%, -10%, 6%[46.1 µM], ?, -4.2%, -9%, ?
> CC(C)NC(=O)c1ccccc1-c1ccccc1
  0%, 6%, 26%, -2%, 6%, 0.0%, 5%, 2%
> C/C(=N\Nc1ccc(C(F)(F)F)cn1)c1ccncc1
  -6%, ·, 1%, -49%, 57%[activator], ·, ·, ?
> Cc1n[nH]c(C)c1CCC(=O)N/N=C/C=C/c1ccccc1
  0%, 0%, 5%, 7%, 10%, -3.8%, -5%, -6%
> CCc1ccc(NC(=O)Cn2c(=O)n(-c3ccc(OC)cc3)c(=O)c3ccc(C(=O)NCc4ccc(C)cc4)cc32)cc1
  ·, -5%, ·, 16%[46.1 µM], -10%, 0.9%, ·, 5%[46.1 µM]
> Cc1ccc([N+](=O)[O-])cc1NC(=O)C(C)NS(=O)(=O)c1ccc(F)cc1 (configuration not stated)
  6%, ·, 7%, -3%[46.1 µM], -16%, ·, 3%, -1%
> CCC(C)NC(=O)COC(=O)c1cc([N+](=O)[O-])ccc1Sc1nc(C)cs1 (configuration not stated)
  -2%, -13%, 7%, -17%, ?, -2.0%, 2%, -25%
> Cc1ccc2[nH]c(-c3ccccc3)c(CN3CCN(C)CC3)c(=O)c2c1
  1%, 17%, -5%, 0%, ·, 1.4%, ?, 1%
